# High-throughput results as filed in PubChem.
# Mtb MbtI inh: blocks the Mycobacterium tuberculosis siderophore enzyme MbtI | P9WFX0 | inhibition, %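 (about 17 µg/mL by stock and volumes)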 | purified MbtI enzyme, fluorescence intensity read-out | 100,000 tested, 0.89% active;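 active = above 50% in both replicates, above 80% if mildly self-fluorescent; inactive = the rest, strongly fluorescent compounds included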;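 also: 0% = mean of negative and 100% = mean of positive controls; one replicate is shown; some compounds called inactive have numbers as strong as hits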
# Target sequence (P9WFX0 whole entry, looked up): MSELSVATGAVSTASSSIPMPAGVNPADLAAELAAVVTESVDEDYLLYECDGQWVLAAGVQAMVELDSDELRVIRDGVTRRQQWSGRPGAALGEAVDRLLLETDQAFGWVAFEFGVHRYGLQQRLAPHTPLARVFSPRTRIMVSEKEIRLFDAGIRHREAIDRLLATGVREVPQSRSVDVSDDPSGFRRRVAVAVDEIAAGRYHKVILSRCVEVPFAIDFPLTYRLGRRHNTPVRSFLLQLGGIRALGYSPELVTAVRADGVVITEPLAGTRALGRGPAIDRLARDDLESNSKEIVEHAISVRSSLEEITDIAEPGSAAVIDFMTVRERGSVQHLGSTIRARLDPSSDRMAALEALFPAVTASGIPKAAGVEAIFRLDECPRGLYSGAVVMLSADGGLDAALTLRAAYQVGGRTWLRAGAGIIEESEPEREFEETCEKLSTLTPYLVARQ
# An asterisk follows results filed as active; i = inactive. This is a subset; count on the stated rates, not on these rows.
Structure	Mtb MbtI inh
Cc1ccccc1N1C(=O)C(O)C(O)C1=O (stereo unspecified)	-6
O=C(c1ccc(Cl)cc1)c1c[nH]c2ccccc2c1=O	-15
CCCCN(CC)C(=O)c1sc2ncn(CC(=O)N(CC)CC)c(=O)c2c1C	-17
CN(C(=O)/C=C\c1ccc2c(c1)OCO2)C(C(=O)Nc1ccc2c(c1)OCO2)c1ccccc1 (stereo unspecified)	7
Nc1nc(-c2ccccc2)c(C(=O)c2ccccc2)s1	8
O=C1c2cccnc2C(O)N1Cc1ccccc1 (stereo unspecified)	-8
O=C(CCSCc1cccc(Cl)c1)NC1CCCC1	-9
O=C(O)C1c2ccccc2C(=O)N(C2CCCC2)C1c1cccs1 (stereo unspecified)	9
Cc1cc(S(=O)(=O)NCCN(C)C)c(C)s1	-14
Cc1nn(-c2ccccc2)c(OC(=O)c2cccs2)c1Sc1ccccc1	15
CC1CN(S(=O)(=O)c2ccc(F)cc2)C(C)CN1S(=O)(=O)c1ccc(F)cc1 (stereo unspecified)	10
c1ccc2c(c1)[nH]c1nc(SCCN3CCCCC3)nnc12	-10
Cc1ccc(N=C2NC(=O)CC(C(=O)O)S2)cc1 (stereo unspecified)	-10
CN(C(=O)c1ncn[nH]1)c1ccccc1	2
OCCSc1ccc(Oc2ccc(SCCO)cc2)cc1	-6
O=C(O)c1ccc2c(c1)-c1nc3ccccc3n1C2=O	-209
COc1ccc(OCC(=O)N2c3ccc(F)cc3CCC2C)cc1 (stereo unspecified)	-9
ClCc1cnn(-c2ccccc2)c1-n1cccc1	-9
CN(C)CCn1c(N)c(-c2nc3ccccc3n2C)c2nc(C#N)c(C#N)nc21	-15
COc1ccc(C(=O)c2c(C)n(C)c(=O)n(C)c2=O)cc1	7
Cc1ccc(-c2n[nH]c(=O)c3ccccc23)cc1S(=O)(=O)N(C)C1CCCCC1	-5
CCC(Cc1cc(OC)c(C)cc1OC)NC(=O)c1ccc(F)c(F)c1 (stereo unspecified)	-11
O=C(O)C1CCC(=O)N1Cc1ccc(F)cc1 (stereo unspecified)	-11
CC(C)N1C(=O)CCC1C(=O)O (stereo unspecified)	-10
CN(C)c1c(N)c(=O)oc2ccccc12	-4

# Next part:
Structure	Mtb MbtI inh
COc1ccc(C(=O)c2cnc(C(C)C)n2C)cc1	10
CC(C)(C)OC(=O)N1CCNc2ccccc2C1	0
CCC(=O)N(Cc1ccc(OC)c(OC)c1)C1CC(C)N(C)CC1C (stereo unspecified)	-8
Cc1nn(C(C)C(=O)O)c2ccccc12 (stereo unspecified)	-17
Cc1nc2n(C)c3ccccc3n2c1C(=O)OCCN1CCCCC1	-2
CN(C)c1ccc(CNc2ccccn2)cc1	-14
Cc1nn(C)cc1CNC(=O)CCC(=O)O	-1
O=C1c2ccccc2S(=O)(=O)N1CC(O)CN1c2ccccc2Sc2ccccc21 (stereo unspecified)	-4
CN(C)Cc1c(O)ccc2occ(C(=O)c3ccc(F)cc3)c12	-12
CCSc1ncnc2c1c(-c1ccccc1)cn2-c1cccc(F)c1	75
O=C1C(c2ccccc2)C(c2cccnc2)NC(c2cccnc2)C1c1ccccc1 (stereo unspecified)	-8
CCOC(=O)c1ccc(CNC(=O)Cn2nnc(-c3ccc(C)cc3)n2)o1	-10
CCOC(=O)c1cnc2ccccc2c1NCCCN1CCOCC1	-4
O=C1c2ccccc2-c2n[nH]c(=O)c3ccc(N4CCCC4)c1c23	-8
COc1ccc(-c2cc3c(=O)[nH]ncn3n2)cc1	2
COC(=O)c1[nH]c(=O)c2ccccc2c1O	5
CC1(C)CC(=O)C=C(NCCCN2CCCC2=O)C1	3
O=C(O)c1cc(C2CC2)[nH]n1	2
CCOC(=O)C(Cc1ccccc1)C(=O)O (stereo unspecified)	-13
COc1ccc(Cn2c(CCC(=O)O)nc3cccnc32)cc1	-2
CC1CCN(CC(C)OC(=O)c2ccco2)CC1 (stereo unspecified)	1
CCCS(=O)(=O)N1CCC(C(=O)NCc2cccnc2)CC1	-8
CC1=Nc2cc(C(=O)O)ccc2Sc2ccc(C)cc21	5
CC(CN1CCOCC1)OC(=O)c1ccco1 (stereo unspecified)	-17
O=C1CSC(c2ccc3c(c2)OCO3)N1c1ccc(Br)cc1 (stereo unspecified)	0

# The list goes on:
Structure	Mtb MbtI inh
Nc1c2c(nn1-c1ccccc1)CC(=O)NC2=O	-8
COC(=O)COc1cccc2c1OC(C)(C)C2	-7
CC1CC(C)(C)NC(=S)N1CCCC(=O)Nc1nc2ccccc2s1 (stereo unspecified)	4
CN(C)C(=O)c1ccc2c(c1)C1C3CCC(C3)C1C(c1ccccc1)N2 (stereo unspecified)	-3
Cc1cc(Cl)ccc1OCCCC(=O)NCc1ccncc1	-10
CCC1CC(C)(C)CCN1C(=O)c1cc(=O)[nH]c(=O)[nH]1 (stereo unspecified)	-10
CC(C)=CCC12CN3CCN(CC(C3)C1=O)C2	-10
CCN(CC)C(=O)c1csc(-c2ccccc2)c1-c1ccccc1	-3
O=C(O)C1CSC(c2cccnc2)=N1 (stereo unspecified)	2
CC(=O)Nc1ccc(OCC(=O)O)cc1	-10
O=C1c2ccc(F)cc2C(=O)N1C1CC1	-13
O=c1cnnc(Nc2ccccc2)[nH]1	7
N=S(N)c1c(O)c2ccccc2oc1=O (stereo unspecified)	4
Cc1oc2ccc(OC(=O)N3CCOCC3)cc2c1C(=O)OC(C)C	-9
O/N=C/c1ccc2cccc(O)c2n1	5
CCCOC(=O)CNc1n[nH]c(=O)[nH]c1=O	-14
O=C(Oc1cccc(Br)c1)c1cccnc1	-13
CCCOc1ccc(C(C)(N)C(=O)O)cc1 (stereo unspecified)	-5
COC(=O)Nc1ccc2ncn(C)c(=O)c2c1	-9
O=C(c1ccc(Br)cc1)c1n[nH]c(C(=O)c2ccccc2)c1O	-9
Cn1c(Cn2ccnc2)nc2ccccc21	-8
COc1ccc(NC(=O)c2sc(=S)n3c2[nH]c(=O)c2sccc23)cc1OC	-3
O=S(=O)(c1ccsc1)c1cccs1	-8
CC1CCC(NC(=O)C(Cc2ccccc2)NC(=O)C2CCCCC2)CC1 (stereo unspecified)	-8
COc1cc(C2NC(C(=O)O)Cc3[nH]cnc32)cc(Br)c1OCc1ccccn1 (stereo unspecified)	2

# The list goes on, overlapping the part above by 2 compounds.
Structure	Mtb MbtI inh
CC1CCC(NC(=O)C(Cc2ccccc2)NC(=O)C2CCCCC2)CC1 (stereo unspecified)	-8
COc1cc(C2NC(C(=O)O)Cc3[nH]cnc32)cc(Br)c1OCc1ccccn1 (stereo unspecified)	2
O=C(NCCO)c1cccc2c1-c1ccc(I)cc1C2	-14
O=C(O)C1CSC(c2ccco2)=N1 (stereo unspecified)	-4
O=C(NCCC1=CCCCC1)c1cc(Sc2ccc(F)cc2)nc2ccccc12	7
COc1cc(Cn2cnnn2)ccc1O	-6
O=C(Nc1c(-c2ccccc2)nc2ncccn12)c1ccccc1	-9
CC(C)C(=O)Nc1ccc2oc(-c3ccncc3)nc2c1	6
CCOC(=O)N1CCC(c2cc(=O)n3[nH]ccc3n2)CC1	i
S=c1oc(-c2ccncc2)nn1CCc1ccncc1	-1
CC(=O)NCCOc1ccc(C)cc1	-2
N#Cc1sc(=S)n(-c2ccccc2)c1N	16
O=C(O)Cc1coc(-c2ccc(F)cc2)n1	4
Cc1nc(C)c(C(=O)O)cc1C(=O)O	-12
O=C(NCCOc1ccc2ccccc2c1)c1cccnc1	-4
COc1ccc(Nc2nc(-c3ccncc3)nc3ccccc23)cc1	-8

# A section taken from the entries so far:
Structure	Mtb MbtI inh
CCC1CC(C)(C)CCN1C(=O)c1cc(=O)[nH]c(=O)[nH]1 (stereo unspecified)	-10
CC(C)=CCC12CN3CCN(CC(C3)C1=O)C2	-10
CCN(CC)C(=O)c1csc(-c2ccccc2)c1-c1ccccc1	-3
O=C(O)C1CSC(c2cccnc2)=N1 (stereo unspecified)	2
CC(=O)Nc1ccc(OCC(=O)O)cc1	-10
O=C1c2ccc(F)cc2C(=O)N1C1CC1	-13
O=c1cnnc(Nc2ccccc2)[nH]1	7
N=S(N)c1c(O)c2ccccc2oc1=O (stereo unspecified)	4
Cc1oc2ccc(OC(=O)N3CCOCC3)cc2c1C(=O)OC(C)C	-9
O/N=C/c1ccc2cccc(O)c2n1	5
CCCOC(=O)CNc1n[nH]c(=O)[nH]c1=O	-14
O=C(Oc1cccc(Br)c1)c1cccnc1	-13
CCCOc1ccc(C(C)(N)C(=O)O)cc1 (stereo unspecified)	-5
COC(=O)Nc1ccc2ncn(C)c(=O)c2c1	-9
O=C(c1ccc(Br)cc1)c1n[nH]c(C(=O)c2ccccc2)c1O	-9
Cn1c(Cn2ccnc2)nc2ccccc21	-8
COc1ccc(NC(=O)c2sc(=S)n3c2[nH]c(=O)c2sccc23)cc1OC	-3
O=S(=O)(c1ccsc1)c1cccs1	-8
CC1CCC(NC(=O)C(Cc2ccccc2)NC(=O)C2CCCCC2)CC1 (stereo unspecified)	-8
COc1cc(C2NC(C(=O)O)Cc3[nH]cnc32)cc(Br)c1OCc1ccccn1 (stereo unspecified)	2
O=C(NCCO)c1cccc2c1-c1ccc(I)cc1C2	-14
O=C(O)C1CSC(c2ccco2)=N1 (stereo unspecified)	-4
O=C(NCCC1=CCCCC1)c1cc(Sc2ccc(F)cc2)nc2ccccc12	7
COc1cc(Cn2cnnn2)ccc1O	-6
O=C(Nc1c(-c2ccccc2)nc2ncccn12)c1ccccc1	-9
CC(C)C(=O)Nc1ccc2oc(-c3ccncc3)nc2c1	6
CCOC(=O)N1CCC(c2cc(=O)n3[nH]ccc3n2)CC1	i
S=c1oc(-c2ccncc2)nn1CCc1ccncc1	-1
CC(=O)NCCOc1ccc(C)cc1	-2
N#Cc1sc(=S)n(-c2ccccc2)c1N	16
O=C(O)Cc1coc(-c2ccc(F)cc2)n1	4
